# Screening results: PubChem BioAssay, several laboratories
# RN4220 kill = S. aureus RN4220 growth inhibition | OD600, 16 h | inhibition, % (no concentration beside the values) | 330,000 tested, 0.33% active;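 active = z-score of -3 or lower and OD600 up to 0.18 on both plates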;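 also: plate controls were untreated cells for no effect and reference antibiotic for full effect; stock transfer was 100 nL into about 80 µL; one replicate is shown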
# Autofluor counter = flagged as autofluorescent in microsphere protease counterscreen; fluorescence intensity (test concentration not listed); 360,000 tested, 3.1% active; AID 624483; compound autofluorescence counterscreen, microsphere flow cytometry; hits give high values;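 active = at least 3 SD above the mean of all compounds, about 16000 in these data; inconclusive = too few beads counted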;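 also: 100 nL of 1 mM stock went into each well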
# PrP 5UTR inh = inhibition of PrP 5' UTR reporter expression | cell-based PrP 5' UTR mRNA reporter, plate reader | inhibition, % (no concentration beside the values) | 340,000 tested, 0.35% active | AID 488862;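 active = every replicate at 50% or more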;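 also: 0 = median of the neutral control wells; tested in H4 reporter cells; numbers are from one replicate; inactives centre near -14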
# Mtb hypoxia rep = inhibitors of hypoxia-regulated fluorescent reporter in Mycobacterium tuberculosis | M. tuberculosis hypoxia-regulated fluorescent reporter, fluorescence | fluorescence inhibition, % (concentration not given with the values) | 300,000 tested, 0.1% active;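 active = 35 to 45% if threefold the growth effect, above 45% if 1.5-fold the growth effect; inactive = the rest, general growth blockers included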;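 also: wells of about 50 µL received 100 nL stock; 0% = vehicle wells and 100% = reference inhibitor wells; whole bacteria with a GFP reporter of the hypoxia response; strong numbers were not always called active; many hits fall short of the cut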
# Sa ugtP lethal = growth inhibition of S. aureus ugtP deletion strain; S. aureus RN4220 ugtP deletion, OD600 growth, 16 h; some inactives read as strong as hits; AID 1259309; 330,000 tested, 0.54% active; growth inhibition, % (test concentration not listed);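 active = z-score under -3 and OD600 up to 0.15 on both plates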;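 also: plate controls were untreated wells for no effect and antibiotic for full effect; wells of about 80 µL received 100 nL stock; the first replicate is given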
# BJeLR viability = BJeLR cell viability loss; inhibition, % (concentration not given with the values); BJeLR (HRASV12) viability, CellTiter-Glo ATP luminescence, 48 h; reference of the scale not given here; 300,000 tested, 0.17% active; AID 1554;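 active = replicate mean above 50%; inconclusive = above 50% but judged a plate artefact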;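 also: 50 nL library stock added to about 25 µL; numbers are from one replicate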
# Mtb hypoxia rep growth = recorded beside Mtb hypoxia rep, whose call it bears; growth inhibition, %; measured here: M. tuberculosis growth (absorbance);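 0% = vehicle and 100% = reference antibiotic; read after six days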
# An asterisk follows results filed as active; ? = inconclusive; . = not tested or not shown.
SMILES,RN4220 kill,Autofluor counter,PrP 5UTR inh,Mtb hypoxia rep,Mtb hypoxia rep growth,Sa ugtP lethal,BJeLR viability
CC1CCCCC1NC(=O)c1cc(S(=O)(=O)N2CCOCC2)ccc1Cl (stereo unspecified),-1.7,3793,-31,6,3,-4,.
Cc1ccc(S(=O)(=O)Nc2cc(C)nn2-c2ccccc2)cc1,0.1,6391,-2,6,4,3,-4
O=C(COc1ccc2ccc(=O)oc2c1)Nc1cccnc1,4.2,5745,-6,14,-2,12,6
CCN1C(N(C)C)=NC[C@@H]1Cc1ccccc1,-3.1,4061,-19,10,16,0,.
COc1ccc(-c2cc(=O)oc3cc(OCC(=O)N[C@@H](Cc4c[nH]c5ccccc45)C(=O)O)ccc23)cc1,0.5,5470,-18,.,.,1,11
CCC(CO)N=CC1=C(O)CC(C)(C)CC1=O (stereo unspecified),-2.0,3748,4,.,.,-1,0
Cn1cccc1/C=C1\CCc2ccccc2C1=O,7.8,3905,-49,21,2,10,30
O=C1C(=O)N(CCN2CCOCC2)C(c2ccccc2F)/C1=C(\O)c1ccc(S(=O)(=O)N2CCOCC2)cc1 (stereo unspecified),0.5,4261,-15,3,1,9,7
COc1ccccc1NC(=O)CCCCCN1C(=O)c2cccc([N+](=O)[O-])c2C1=O,-0.1,3024,-19,.,.,3,-9
O=C(O)c1cc2c(cc1NC(=O)C1CCCC1)OCCO2,8.5,.,.,12,4,3,.
Cc1cccc(NC(=S)NNC(=O)c2csc(C)c2)c1,5.3,2051,-79,2,5,1,-6
O=C(NN=Cc1ccc2c(c1)OCO2)c1ccccc1,-3.1,3255,-91,13,2,-6,.
CC1=NNC(=O)C1C(c1cccc(O)c1)C(C#N)C#N (stereo unspecified),3.1,4284,-27,7,2,6,-4
CCN(Cc1ccccc1)Cc1nc(CCc2ccccc2)no1,6.8,5501,-32,0,-2,2,-3
Cc1cc2[nH]c(=O)c(=O)[nH]c2cc1S(=O)(=O)NC1CCC(C)CC1 (stereo unspecified),2.5,4527,-5,3,-1,0,6
CN(C)c1ccc(C(=O)OCC(=O)N2CCCC2)cc1,1.7,3722,-29,14,5,8,-5
Cc1cc(Cl)ccc1C1=CC(=O)CC(c2ccc(F)cc2)C1 (stereo unspecified),-7.5,.,.,4,9,-4,.
CC(Oc1ccccc1)C(=O)N1CCN(c2ncccn2)CC1 (stereo unspecified),6.2,.,-15,11,2,2,.
Cc1ccc(N(CC(=O)NCCSCc2ccco2)S(=O)(=O)c2ccc(C)cc2)cc1,1.2,2812,-29,.,.,1,2
CC1=C(C(=O)NCCN2CCOCC2)C2(CCC(C)CC2)OC1=O (stereo unspecified),6.4,5781,-32,5,1,4,10
O=C(Cn1ncc2c1-c1ccccc1OC2)N(Cc1ccco1)C1CCCCC1,3.5,5853,-22,4,3,8,-4
CCc1nnc(NC(=O)c2ccc(N(C)S(=O)(=O)c3ccccc3)cc2)s1,2.3,9986,-29,0,-5,5,-8
COc1ccc(S(=O)(=O)N2CCN(C(=O)CCOc3ccccc3)CC2)cc1OC,-2.9,6285,-12,-2,-1,10,.
COC(=O)c1ccc(NC(=O)Nc2ccc(OC)c(OC)c2)cc1,-1.7,2437,-8,1,4,-2,10
COC(=O)c1ccc2c(C)c(C(C)(C)O)[nH]c2c1,9.0,5400,0,3,0,6,0
COc1ccc(NC(=O)CSCC(=O)Nc2ccc(C)c(S(=O)(=O)N3CCCCCC3)c2)cc1,-1.3,6125,-27,-1,0,-4,-10
COc1ccc(NC(=O)CSc2ncnc3c2nnn3-c2ccc(F)cc2)c(OC)c1,-1.3,4304,7,6,-4,-1,1
C[C@H](CO)N1C[C@H](C)[C@@H](CN(C)S(=O)(=O)c2ccccc2)Oc2c(NC(=O)Nc3ccccc3)cccc2C1=O,2.6,3522,-20,3,0,1,.
COc1ccc(CC(N)=NOC(=O)c2ccc(Cl)cc2)cc1,4.7,.,.,7,6,-2,.
S=c1[nH]nc(-c2ccco2)n1N=Cc1ccc(Cl)cc1Cl,12,.,.,10,11,-10,.
CCOC(=O)c1c(-c2ccc(C)cc2C)csc1NC(=O)CSc1nnnn1C,-4.7,11546,-10,-6,-16,40,-2
CC1CC(C)CN(S(=O)(=O)c2ccc(C(=O)NCc3ccco3)cc2)C1 (stereo unspecified),1.8,3186,-9,5,5,8,2
CCCCCn1c(N)c(C(=O)NCc2cccs2)c2nc3ccccc3nc21,0.7,.,.,-2,1,-8,-3
COc1cc(NC(=O)c2ccc3c(=O)n(Cc4ccco4)c(=S)[nH]c3c2)cc(OC)c1OC,-1.4,2927,-12,-16,6,-5,2
NC(=O)c1ccc(NC(=O)COC(=O)C2(c3cccc(F)c3)CCCC2)cc1,0.4,4456,-16,4,6,-4,-2
CC(CNC(=O)c1ccc(OC2CCN(Cc3ccccn3)CC2)cc1)Oc1cccnc1 (stereo unspecified),-4.1,?,-6,-3,-6,-4,11

# 3 consecutive records out of the list so far:
SMILES,RN4220 kill,Autofluor counter,PrP 5UTR inh,Mtb hypoxia rep,Mtb hypoxia rep growth,Sa ugtP lethal,BJeLR viability
COC(=O)c1ccc2c(C)c(C(C)(C)O)[nH]c2c1,9.0,5400,0,3,0,6,0
COc1ccc(NC(=O)CSCC(=O)Nc2ccc(C)c(S(=O)(=O)N3CCCCCC3)c2)cc1,-1.3,6125,-27,-1,0,-4,-10
COc1ccc(NC(=O)CSc2ncnc3c2nnn3-c2ccc(F)cc2)c(OC)c1,-1.3,4304,7,6,-4,-1,1

# More structures
SMILES,RN4220 kill,Autofluor counter,PrP 5UTR inh,Mtb hypoxia rep,Mtb hypoxia rep growth,Sa ugtP lethal,BJeLR viability
COC(=O)CNS(=O)(=O)c1ccc(OC)cc1,5.8,3999,-16,12,12,-7,-2
CCOC(=O)N1CCN(C(=O)c2cccc(S(=O)(=O)Nc3ccc(OC)cc3)c2)CC1,1.2,5287,-13,-15,-5,0,5
Cc1occc1-c1nnc(SCC(=O)N(C)c2ccccc2)o1,2.8,6715,2,7,10,10,.
CC1CC1C(=O)OCC(=O)NC(=O)NCc1ccco1 (stereo unspecified),1.8,4103,-1,.,.,1,-4
CCOC(=O)C1(CCCc2ccccc2)CCN(C(=O)Cc2nonc2C)CC1,11,4589,-36,16,2,-4,8
O=C(Cc1cccs1)N(c1ccc(Br)cc1)C1C=CS(=O)(=O)C1 (stereo unspecified),1.9,3289,-9,2,5,1,4
CC1CN(S(=O)(=O)c2ccccc2)C(C)N1C(=O)N1CCOCC1 (stereo unspecified),-0.2,?,-8,2,9,7,0
CCOc1ccc(Nc2ccc(C(=O)O)cc2[N+](=O)[O-])cc1,1.2,3835,-17,6,6,8,-7
O=C(O)c1ccc2c(c1)C(=O)N(c1ccc([N+](=O)[O-])cn1)C2=O,2.9,3697,-9,2,5,17,-4
O=C(CN(Cc1ccc2c(c1)OCO2)C(=O)CSc1nc2ccccc2o1)NC1CCCCC1,2.5,3843,-14,15,7,2,2
COc1cc(S(C)=O)ccc1-c1nc2ncccc2[nH]1 (stereo unspecified),9.4,5061,-73,4,-1,7,.
O=C(NNC(=O)c1cccc(S(=O)(=O)N2CCc3ccccc32)c1)c1ccccc1,3.0,3878,6,3,6,12,6
COc1ccc(CN2C[C@H]3CCCN3c3cc(Br)ccc3S2(=O)=O)cc1,2.3,4014,48,-6,-14,-7,.
O=C(CNC(=O)c1ccc(Br)o1)NCc1ccc(Cl)cc1Cl,0.0,4952,-3,2,1,-1,-1
CC1C/C(=N\NC(=O)c2cccnc2)CC(C)(C)C1 (stereo unspecified),.,3321,-12,.,.,.,-2
N#CC1=C(N)Oc2cc(O)ccc2C1c1ccc2c(c1)OCO2 (stereo unspecified),8.5,4410,-7,3,3,-19,-8
CCSc1nc(-c2ccco2)ccc1C#N,1.3,4445,-5,3,3,9,3
O=C(/C(=N/N=C/c1ccc(O)c(O)c1)c1ccccc1)c1ccccc1,.,2562,-23,.,.,.,0
O=C(N/N=C\c1ccccc1)c1sccc1-n1cccc1,.,4317,-5,.,.,.,-2
COC(=O)Nc1ccc(C)c2nsnc12,6.4,8714,-14,4,9,1,-3
COc1ccc(/C=N/NC(=O)c2cccnc2)cc1CSc1nc2ccccc2s1,.,2168,-56,.,.,.,27
CC(C)CNC(=O)COC(=O)c1c2c(nc3ccccc13)/C(=C/c1cccs1)CC2,4.4,8338,-15,-9,7,-16,6
Cc1ccc(NC(=S)c2nc3ccccc3[nH]2)c(C)c1,-6.5,2465,-62,7,6,11,5
Cn1cc(C(CC(=O)O)C(=O)O)c2ccccc21 (stereo unspecified),7.4,23907*,-23,17,4,0,-10
FC(F)C(F)(F)C1=CC(c2ccccc2)=NCCN1,2.2,2658,-13,.,.,-1,6
CCn1c(CNc2ccc(Cl)cc2)nnc1SCC#N,2.1,2626,-2,8,11,3,1
Cc1cc(C)cc(NC(=O)[C@@H](NC(=O)c2ccco2)C(C)C)c1,0.0,4021,10,-6,-2,-6,-12
O=C(CC12CC3CC(CC(C3)C1)C2)NCc1ccc(F)cc1,-1.5,3497,-17,.,.,1,-3
Cc1oc2c(F)c(F)c(F)c(F)c2c1S(=O)(=O)Nc1cccc(C(F)(F)F)c1,23,4564,-8,10,-20,35,23
Cc1cc(Sc2nnc(N=CN(C)C)s2)c2ccccc2n1,7.8,.,.,16,8,-5,.
C/C(=N/NC(N)=S)c1cc2ccc(O)cc2oc1=O,.,4529,-14,.,.,.,8
O=C1CCCN2N=C(SCC(=O)N3N=C(c4ccc(Br)cc4)CC3c3ccc(F)cc3)SC2=N1 (stereo unspecified),-7.0,4633,2,0,10,15,-1
COc1ccc(C(=O)Cc2ccccc2)cc1OC,5.0,11178,-10,10,3,1,-2
Cc1c(NC(=O)COC(=O)Cn2cc(C(F)(F)F)ccc2=O)cccc1[N+](=O)[O-],4.0,4505,4,13,3,2,.
O=C(NCc1ccc(F)cc1)C1CC(=O)N(Cc2ccco2)C1 (stereo unspecified),4.5,5634,-12,-2,1,7,11
O=c1cnnc(N/N=C/c2cccs2)[nH]1,.,4513,-18,.,.,.,-6
Cc1nc(SCC(=O)N2CCOCC2)c2c(C)c(C)sc2n1,5.0,2910,-9,5,5,12,7
C=CCOc1c(Br)cc(/C=N/NC(N)=O)cc1OC,.,10440,-6,.,.,.,11
O=c1[nH]c2cc3c(cc2cc1CN(Cc1ccco1)C(=S)NCC1CCCO1)OCCO3 (stereo unspecified),1.4,3852,-15,-4,4,0,-14
O=C(CSc1nnc(CN2CCCCC2)n1-c1ccccc1)c1ccc2c(c1)OCO2,4.8,9938,-14,-5,-4,-15,-3
COc1ccc(C2Nc3ccccc3C(=O)N2c2ccccc2)cc1Cn1cc([N+](=O)[O-])cn1 (stereo unspecified),0.7,2260,-28,-9,6,15,1
C/C(=C\c1ccccc1)CN1CCN(c2ccccc2)CC1,7.8,21899*,2,7,1,36,5
C#CCNC(=O)C1=C[C@@H](c2coc3ccccc3c2=O)C[C@@H](OCc2ccc(CO)cc2)O1,.,3964,-17,.,.,.,-2

# Entries above with fluorine:
SMILES,RN4220 kill,Autofluor counter,PrP 5UTR inh,Mtb hypoxia rep,Mtb hypoxia rep growth,Sa ugtP lethal,BJeLR viability
O=C1C(=O)N(CCN2CCOCC2)C(c2ccccc2F)/C1=C(\O)c1ccc(S(=O)(=O)N2CCOCC2)cc1 (stereo unspecified),0.5,4261,-15,3,1,9,7
Cc1cc(Cl)ccc1C1=CC(=O)CC(c2ccc(F)cc2)C1 (stereo unspecified),-7.5,.,.,4,9,-4,.
COc1ccc(NC(=O)CSc2ncnc3c2nnn3-c2ccc(F)cc2)c(OC)c1,-1.3,4304,7,6,-4,-1,1
NC(=O)c1ccc(NC(=O)COC(=O)C2(c3cccc(F)c3)CCCC2)cc1,0.4,4456,-16,4,6,-4,-2
FC(F)C(F)(F)C1=CC(c2ccccc2)=NCCN1,2.2,2658,-13,.,.,-1,6
O=C(CC12CC3CC(CC(C3)C1)C2)NCc1ccc(F)cc1,-1.5,3497,-17,.,.,1,-3
Cc1oc2c(F)c(F)c(F)c(F)c2c1S(=O)(=O)Nc1cccc(C(F)(F)F)c1,23,4564,-8,10,-20,35,23
O=C1CCCN2N=C(SCC(=O)N3N=C(c4ccc(Br)cc4)CC3c3ccc(F)cc3)SC2=N1 (stereo unspecified),-7.0,4633,2,0,10,15,-1
Cc1c(NC(=O)COC(=O)Cn2cc(C(F)(F)F)ccc2=O)cccc1[N+](=O)[O-],4.0,4505,4,13,3,2,.
O=C(NCc1ccc(F)cc1)C1CC(=O)N(Cc2ccco2)C1 (stereo unspecified),4.5,5634,-12,-2,1,7,11
